Assay outcomes (PubChem BioAssay)
A647 autofl = qHTS Assay for Spectroscopic Profiling in A647 Spectral Region. max dye-equivalent concentration, M. Compound fluorescence, A647 channel (570/671 nm), Tris buffer. AID 592, 2007. 59,000 tested, under 10 active; active means above 1 µM dye equivalent; inconclusive means 0.1 to 1 µM; inactive means 0.1 µM or less;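 note: values scaled relative to a standard on each plate; highest value over a series up to 38 µM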
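Buffer was dispensed, compounds and Alexa 647 standards were pin-transferred, and plates sat 15 min at room temperature. Intensity at 570/671 nm was then converted to dye-equivalent concentration using the plate's A647 standard curve.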
A488 fluor = qHTS Assay for Spectroscopic Profiling in A488 Spectral Region. compound autofluorescence, A488 spectral region, dye equivalency; hits give high values. max dye equivalency, M. 59,000 compounds, 0.1% hits; active = above 10 nM dye equivalent; inconclusive = 1 to 10 nM; inactive = 1 nM or less; about half of its hits are not listed in these tables;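 note: highest value over a series up to 38 µM; compound alone in buffer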
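Compounds pin-transferred into 100 mM Tris buffer, pH 8.0, incubated 15 min at room temperature, then imaged with 480 nm excitation/540 nm emission filters. Fluorescence converted to Alexa 488 dye-equivalent concentration via an on-plate six-point A488 standard curve.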
Resorufin fluor = qHTS Assay for Spectroscopic Profiling in Resorufin Spectral Region; 59,000 compounds, 0.04% hits; AID 588, 2007; max dye-equivalent concentration, M; Compound fluorescence, resorufin region 547/598 nm, buffer; hits give high values; active = above 10 nM dye equivalent; inconclusive = 1 to 10 nM; inactive = 1 nM or less; a few of its hits are not listed in these tables; note: highest value over a series up to 38 µM
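Intrinsic fluorescence profiled in the resorufin window (ex 547 nm, em 598 nm) after 15 min at room temperature in pH 8.0 Tris buffer (100 mM); responses normalized against a six-point resorufin standard series as dye-equivalent concentration.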
TSHR agonist = qHTS Assay for Agonists of the Thyroid Stimulating Hormone Receptor; 73,000 compounds, 0.48% hits; Potency, µM (series often up to 57.1 µM), without a hit: at the highest dose activation, usual class: activators; HEK293-CNG-TSHR cells (CNG channel as cAMP sensor), membrane potential dye, cAMP; active = well fitted activation curve of enough size with the parental cells flat; inconclusive = any curve in the parental cells; inactive = parental cells flat and receptor cells flat or falling; note: potency is the fitted concentration of half-maximal effect; % of control where 0% means no effect; weak receptor curves with flat parental cells got no call and are not listed
Target sequence (P16473 whole entry, looked up): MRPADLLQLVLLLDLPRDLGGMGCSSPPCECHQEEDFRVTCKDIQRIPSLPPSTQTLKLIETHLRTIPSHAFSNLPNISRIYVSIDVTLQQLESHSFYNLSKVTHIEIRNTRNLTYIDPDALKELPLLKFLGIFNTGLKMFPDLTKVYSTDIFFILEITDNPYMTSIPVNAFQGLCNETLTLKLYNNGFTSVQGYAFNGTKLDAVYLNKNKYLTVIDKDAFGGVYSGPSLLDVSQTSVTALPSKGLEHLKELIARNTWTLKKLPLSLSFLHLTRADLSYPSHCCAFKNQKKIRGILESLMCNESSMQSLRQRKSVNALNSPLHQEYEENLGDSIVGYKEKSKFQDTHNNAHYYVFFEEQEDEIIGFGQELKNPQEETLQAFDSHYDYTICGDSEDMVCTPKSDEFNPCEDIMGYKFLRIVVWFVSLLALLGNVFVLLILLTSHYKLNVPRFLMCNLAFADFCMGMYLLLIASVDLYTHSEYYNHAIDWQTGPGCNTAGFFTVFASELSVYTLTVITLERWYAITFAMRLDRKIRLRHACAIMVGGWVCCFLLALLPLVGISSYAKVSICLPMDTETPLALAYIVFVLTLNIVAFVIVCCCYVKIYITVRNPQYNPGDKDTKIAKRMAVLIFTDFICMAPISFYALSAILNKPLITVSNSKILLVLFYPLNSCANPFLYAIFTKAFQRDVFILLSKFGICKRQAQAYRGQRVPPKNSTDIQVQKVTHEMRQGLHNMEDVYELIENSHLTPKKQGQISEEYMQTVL
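cAMP rise detected as CNG-channel membrane depolarization by fluorescent dye (emission 590 nm), 30 min after compound, following 60 min dye loading containing 100 uM RO 20-1724 at room temperature. Cells: TSHR/CNG HEK 293, with parental CNG HEK 293 as control.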
AID923 = qHTS Assay for Allosteric/Competitive Inhibitors of Caspase-1: Spectroscopic Profiling in AFC Spectral Region | 75,000 compounds, 1.1% hits | AID 923, 2007 | compound fluorescence, AFC spectral region (405/520 nm); almost no hit is shown here | Potency, µM (highest dose often 57.5 µM), inactives show top-dose fluorescence increase, hits mostly activators; active = well fitted activation curve with a large enough effect; inconclusive = small, poorly fitted or top-dose-only effect;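 note: potency is the fitted concentration of half-maximal effect; 0% is about no effect; scaled to a free AFC standard on each plate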
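Compound autofluorescence profiled at 405 nm ex/520 nm em during kinetic caspase 1 run (50 nM enzyme, 5 uM Ac-WEHD-AFC, HEPES pH 7.5, 10 mM DTT). Titration up to 57 uM; baseline from regression intercept, normalized to AFC standard curve.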
An asterisk follows results filed as active; i = inactive; ? = inconclusive; . = not tested or not shown; [ ] = dose if it differs, or a comment. An excerpt; the hit share may differ from the screen's.

Molecule	A647 autofl	A488 fluor	Resorufin fluor	TSHR agonist	AID923
CS(=O)(=O)Nc1ccc(C(=O)NCCc2ccccc2)cc1	1.24e-08	i	i	?	0.8%
O=C(Nc1ccc2c(c1)OCO2)c1cnn2cccnc12	1e-09	i	i	2.2%	1.0%
CCOc1ccccc1NC(=O)CN1C(=O)COc2ccc(Cl)cc21	.	.	.	?	-1.1%
COc1ccc(S(=O)(=O)Nc2cccc(SC)c2)cc1OC	8.3e-09	i	i	.	1.4%
CCN(CC)C(=O)C1CC(=O)N(c2ccc(F)c(Cl)c2)C1 (stereo not given)	1e-09	i	i	-0.1%	0.6%
CCOC(=O)C1CCN(C(=O)c2cn(C)c(=O)c3cc(OC)c(OC)cc23)CC1	3.23e-08	i	i	4.9%[11.4 µM]	2.0%
COc1ccc(-c2nc(CN3CCC(C(=O)NC4CCCc5ccccc54)CC3)c(C)o2)cc1OC (stereo not given)	7.4e-09	i	i	0.6%	0.1%
CCC1CCCCN1S(=O)(=O)c1ccc(NC(=O)CSc2ncccc2C(=O)O)cc1 (stereo not given)	1.1e-09	i	i	-2.2%	-1.3%
O=C(Nc1ccc2c(c1)OCCO2)C1CCN(S(=O)(=O)Cc2ccccc2)CC1	1e-09	i	i	-0.7%	-0.9%
O=C1c2ccccc2C(=O)N1CCCOCc1c[nH]c(=O)[nH]c1=O	1.48e-08	i	i	3.5%	-1.1%
CN1C(=O)NC(NC(=O)c2cccs2)(C(F)(F)F)C1=O (stereo not given)	4.32e-08	i	i	-8.0%	0.7%
O=C1OCCC1Sc1nc2ccccc2n1Cc1ccccc1 (stereo not given)	1.4e-09	i	i	9.5%	-0.1%
Cc1ccc(NC2=Nc3ccccc3CS2)cc1	1.41e-08	i	i	-8.3%	-1.9%
O=C(O)c1cccc(Cn2cc(Br)cn2)c1	1e-09	i	i	4.5%	0.8%
CCn1ncc(Br)c1C(=O)Nc1nccs1	2.15e-08	i	i	-2.0%	2.8%

More records:
Molecule	A647 autofl	A488 fluor	Resorufin fluor	TSHR agonist	AID923
COc1ccc(C(=O)NCCn2ccc3ccccc32)cc1OC	.	.	.	?	-3.4%
Cn1c(=O)c(CCc2ccccc2)nc2cnc(N3CCOCC3)nc21	1e-09	i	i	4.5%	7.2%
Cc1ccc2c(c1)N(Cc1ccncc1)C(=O)C(C)O2 (stereo not given)	3.61e-08	i	i	6.0%	0.9%
COCCn1c(SC(C)C(=O)Nc2ccc3c(c2)OCCO3)nc2ccccc2c1=O (stereo not given)	8.6e-09	i	i	?	-0.8%
CCn1c2ccccc2c2cc(NC(=O)N3CCOCC3)ccc21	1e-09	i	i	12.9%	0.5%
CCCn1nnc(NC(=O)COc2ccc(Cl)cc2)n1	1e-09	i	i	-1.8%	1.8%
OCCN1CCN(c2nc(N3CCCCC3)nc(N3CCCCC3)n2)CC1	.	.	.	16.9%[11.4 µM]	4.4%
COc1ccc(C(=O)N2CCC3(CCN(C(=O)Nc4ccccc4)CC3)CC2)cc1	2.4e-09	i	i	3.3%	4.2%
Cc1ccc(-n2c(CNc3ccc(F)cc3)nnc2SCC(=O)NCc2ccco2)cc1	1.35e-08	i	i	20.6%	0.0%
Cc1nnc(NC(=O)NCN2C(=O)C3C4C=CC(C4)C3C2=O)s1 (stereo not given)	1.4e-09	i	i	-3.7%	0.5%
COc1ccc(N(CC(=O)NCc2cccnc2)S(=O)(=O)c2c(C)nn(C)c2C)cc1	.	.	.	-2.2%	-1.4%
CCOC(=O)N1CCC(N2C(=O)c3ccccc3C2Nc2ccccc2C)CC1 (stereo not given)	.	.	.	21.9%	-2.9%
CN(C(=O)CSc1nc2ccccc2n1CCc1ccccc1)C1CCS(=O)(=O)C1 (stereo not given)	3.29e-08	i	i	8.6%	0.4%
O=C1NC(=O)c2cc(NC(=O)C3CCCCC3)ccc21	7.6e-09	i	i	5.0%	1.0%
Cn1c(=O)n(Cc2ccccc2F)c(=O)c2c1nc1n2CCCN1CCc1ccccc1	2.72e-08	i	i	-31.8%[inhibitor]	-1.0%

(listing goes on)
Molecule	A647 autofl	A488 fluor	Resorufin fluor	TSHR agonist	AID923
COc1ccccc1-c1nnc(SCC(=O)Nc2cc(C)on2)o1	5e-09	i	i	0.1%	-0.6%
Cc1ccccc1N(CC(=O)NCc1ccc2c(c1)OCO2)C(=O)CCC(=O)Nc1ccccn1	3.95e-08	i	i	?	-2.3%
COc1ccc(CCC(C(O)C(F)(F)F)S(=O)c2ccccc2)cc1 (stereo not given)	1e-09	i	i	3.3%	0.1%
COCCn1c(C)cc(C(=O)COC(=O)C23CC4CC(CC(O)(C4)C2)C3)c1C	1e-09	i	i	-2.4%	0.4%
COC(=O)C1CCN(C(=O)COC(=O)CC(NC(N)=O)c2ccc(Cl)cc2)CC1 (stereo not given)	1.21e-08	i	i	-1.1%	-0.2%
O=S(=O)(c1ccccc1)N1CCC2(CCN(Cc3nccs3)CC2)CC1	1.4e-09	i	i	-1.2%	2.8%
COc1ccc(-n2nnnc2-c2cccnc2)cc1	1e-09	i	i	4.8%	1.6%
O=C(Nc1nc(-c2ccc(S(=O)(=O)N3CCCC3)cc2)cs1)c1cccs1	1.81e-08	i	i	?	-0.8%
COC(=O)C1C(O)=C(C=NCC(C)N=CC2=C(O)C(C(=O)OC)C(C)(C)CC2=O)C(=O)CC1(C)C (stereo not given)	.	.	.	-4.9%	-2.3%
CCOC(=O)N1CCC(N2Cc3cccc(C(=O)NCc4ccccn4)c3C2=O)CC1	.	.	.	-3.2%	-0.1%
CCN(CC(=O)NCc1ccc(F)cc1)C(=O)C1CCN(C(=O)Nc2ccccc2)CC1	2.45e-08	i	i	-5.6%	-0.2%
CC(CCc1ccccc1)NC(=O)c1cc2sccc2n1C (stereo not given)	.	.	.	25.1µM*	1.1%
O=c1cc(NCc2ccccc2)nc2n1CCCS2	3.89e-08	i	i	.	.
COc1cccc(OCCn2c(C)c(/C=N/n3cnnc3)c3ccccc32)c1	.	.	.	?	-1.8%
CC(NC(=O)COc1cc(=O)n(C)c2ccccc12)c1ccc2c(c1)OCCO2 (stereo not given)	1e-09	i	i	-2.4%[11.4 µM]	-0.5%

(list continues)
Molecule	A647 autofl	A488 fluor	Resorufin fluor	TSHR agonist	AID923
CC#CCOCC/C=C1/c2ccccc2C(OC)C1C (stereo not given)	.	.	.	1.3%[11.4 µM]	-0.1%[11.5 µM]
CCn1ncc(C2=NOC(C(=O)NCc3ccc(Cl)cc3)C2)c1C (stereo not given)	.	.	.	17.1%	-0.5%
CCOC(=O)c1sc(NC(=O)CSc2nc3c(cc2C#N)CCCCCC3)c(C#N)c1C	1e-09	i	i	24.7%	15.5%
Cc1cccc(N)c1SC1CCCCC1O (stereo not given)	1e-09	i	i	.	.
Cc1cccc(N(C)C(=O)c2coc(=O)c3ccccc23)c1	9.8e-09	i	i	-0.3%[11.4 µM]	-0.3%
CC(C)OCCCNS(=O)(=O)c1ccc2c(c1)OCCO2	3e-08	i	i	?	0.3%
O=C(NC1CCCC1)c1c[nH]c2ccc(F)cc2c1=O	2.9e-09	i	i	-9.9%	2.7%
COc1cccc(C2C(C(=O)c3cc4cccc(OC)c4o3)=C(O)C(=O)N2c2cc(C)on2)c1OC (stereo not given)	6.3e-09	i	i	.	-2.1%
CN(Cc1ccccc1)c1nc2c(c(=O)[nH]c(=O)n2C)n1Cc1ccccc1Cl	6.5e-09	i	i	0.0%	-0.7%
O=C(Nc1nnc(CC(=O)N2CCCC2)s1)c1cnccn1	3.73e-08	i	i	-0.5%	-0.5%
CC(C)(C)c1nn(-c2ccccc2)c2[nH]c(=O)c(CNCc3ccco3)cc12	2.1e-09	i	i	-1.6%	-0.1%
Cc1ccccc1N(CC(=O)Nc1ccc(F)cc1)S(C)(=O)=O	1e-09	i	i	-0.3%	-1.1%
CCOC(=O)NCC(C#CCN(CC)CC)N(CC)CC (stereo not given)	1e-09	i	i	19.6%	1.1%
CCOc1ccc(N2C(=O)CC(N3CCN(c4ccccc4F)CC3)C2=O)cc1 (stereo not given)	4.73e-08	i	i	.	6.0%
O=C(NCc1ccco1)C1CCCN(S(=O)(=O)c2cccc3cccnc23)C1 (stereo not given)	.	.	.	0.5%	0.1%

Next section
Molecule	A647 autofl	A488 fluor	Resorufin fluor	TSHR agonist	AID923
C=CCn1c(SCc2ccc3nonc3c2)nnc1-c1cccs1	1e-09	i	i	?	0.5%
CC(C)n1c(=O)[nH]c2ccccc21	1.67e-08	i	i	1.2%	-1.1%
COc1ccc(CCn2nnnc2C(CC(C)C)N2CCN(c3ncccn3)CC2)cc1OC (stereo not given)	9.6e-09	i	i	10.8%	1.1%
COCCn1c(=O)c(C)nc2cnc(N3CCOCC3)nc21	1.77e-08	i	i	?	11.6%
O=C(O)COc1ccc(S(=O)(=O)NCCc2ccccc2)cc1	.	.	.	-15.1%	-0.3%
CCn1c(SCC(=O)Nc2nc3c(s2)CCCC3)nc2c1c(=O)n(C)c(=O)n2C	2.9e-08	i	i	4.0%	0.2%
CC1(C)CC(=O)C(C(c2ccncc2)C2C(=O)CC(C)(C)CC2=O)C(=O)C1	9.1e-09	i	i	5.9%	1.5%
CC(Nc1cc(=O)n(C)c(=O)n1C)c1ccccc1 (stereo not given)	1e-09	i	i	1.4%	0.2%
CCC(=O)N1CCN(c2ccccc2NC(=O)Cc2ccccc2)CC1	1.94e-08	i	i	?	-0.9%
O=C1C=C(OCc2ccccc2)CN1	3.7e-08	i	i	2.6%[11.4 µM]	-0.6%
CC(C)CCOc1ccc(Cl)cc1CN1CCOCC1	7.18e-08	i	i	.	.
CC12CN3CC(C)(CN(C1)C3c1cc(Br)ccc1O)C2=O (stereo not given)	.	.	.	?	0.6%
COc1ccc(OC)c(CNC(=O)CCNC(=O)Cn2ccc3ccccc3c2=O)c1	3.01e-08	i	i	-0.5%[11.4 µM]	-1.3%
CN(C)P(=NC(=O)COc1ccc(Cl)cc1Cl)(N(C)C)N(C)C	2.5e-09	i	i	9.1%	-0.9%
CCOC(=O)N1CCN(Cc2nc3c(c(=O)[nH]c(=O)n3C)n2CCCc2ccccc2)CC1	1e-09	i	i	6.7%	-0.7%

Four records picked at random from the list so far, as already listed:
Molecule	A647 autofl	A488 fluor	Resorufin fluor	TSHR agonist	AID923
O=C1C=C(OCc2ccccc2)CN1	3.7e-08	i	i	2.6%[11.4 µM]	-0.6%
O=C(O)COc1ccc(S(=O)(=O)NCCc2ccccc2)cc1	.	.	.	-15.1%	-0.3%
CN(C)P(=NC(=O)COc1ccc(Cl)cc1Cl)(N(C)C)N(C)C	2.5e-09	i	i	9.1%	-0.9%
CCn1c(SCC(=O)Nc2nc3c(s2)CCCC3)nc2c1c(=O)n(C)c(=O)n2C	2.9e-08	i	i	4.0%	0.2%
